Screening data: PubChem BioAssay, National Center for Advancing Translational Sciences (NCATS)
TRPML1 ag: qHTS for Agonists of the Human Mucolipin Transient Receptor Potential 1 (TRPML1). Mucolipin-1 (Homo sapiens), Q9GZU1. TRPML1-expressing cells, Ca2+ dye fluorescence, FDSS; host cell line not named in the record; reference of the full effect not given here. activation, % (concentration not given with the values). 410,000 tested, 0.12% active; in the data active = activation above about 50%; inconclusive = about 30% to 50%; inactive = below about 30%; also: 0% is about no effect; the text of the record puts the active cut at 80%
Target sequence (Q9GZU1 whole entry, looked up): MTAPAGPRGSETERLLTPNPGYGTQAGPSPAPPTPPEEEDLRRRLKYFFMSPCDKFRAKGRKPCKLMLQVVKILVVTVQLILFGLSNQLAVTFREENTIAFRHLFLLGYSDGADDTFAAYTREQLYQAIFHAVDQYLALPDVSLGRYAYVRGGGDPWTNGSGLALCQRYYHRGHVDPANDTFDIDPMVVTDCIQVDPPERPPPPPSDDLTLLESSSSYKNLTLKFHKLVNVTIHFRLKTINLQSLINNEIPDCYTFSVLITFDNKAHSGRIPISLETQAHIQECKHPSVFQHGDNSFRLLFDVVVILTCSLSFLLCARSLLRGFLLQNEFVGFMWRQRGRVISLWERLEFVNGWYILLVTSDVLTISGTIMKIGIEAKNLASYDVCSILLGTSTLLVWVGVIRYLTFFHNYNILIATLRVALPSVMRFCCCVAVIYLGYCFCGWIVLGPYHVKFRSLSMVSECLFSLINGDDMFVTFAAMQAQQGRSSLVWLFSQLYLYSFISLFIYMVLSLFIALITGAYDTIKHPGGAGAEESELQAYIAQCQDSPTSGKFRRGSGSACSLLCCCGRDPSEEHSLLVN
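In this qHTS format, compounds were pin-transferred onto Ca8-dye-loaded TRPML1-DL cells induced with Tet overnight, and intracellular Ca2+ fluorescence was recorded kinetically for 110 s after a 10 s baseline. A subsequent 4uM final 54-4 (EC80) addition followed by a second 110 s read served as the antagonist phase.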
D2 ag: Beta-Arrestin HTS for Positive Allosteric Modulators of the Human D2 Dopamine Receptor: Agonists; AID 624465, 2012; D(2) dopamine receptor (Homo sapiens), P14416; DiscoveRx PathHunter D2 beta-arrestin, luminescence, 90 min; 100% = 57 uM dopamine signal; activation, % (test concentration not listed); 360,000 tested, 0.084% active; in the data active = activation above about 40%; inconclusive = about 15% to 40%; inactive = below about 15%; also: compound concentration not given in the record; the text of the record calls up to 30% inactive
Target sequence (P14416 whole entry, looked up): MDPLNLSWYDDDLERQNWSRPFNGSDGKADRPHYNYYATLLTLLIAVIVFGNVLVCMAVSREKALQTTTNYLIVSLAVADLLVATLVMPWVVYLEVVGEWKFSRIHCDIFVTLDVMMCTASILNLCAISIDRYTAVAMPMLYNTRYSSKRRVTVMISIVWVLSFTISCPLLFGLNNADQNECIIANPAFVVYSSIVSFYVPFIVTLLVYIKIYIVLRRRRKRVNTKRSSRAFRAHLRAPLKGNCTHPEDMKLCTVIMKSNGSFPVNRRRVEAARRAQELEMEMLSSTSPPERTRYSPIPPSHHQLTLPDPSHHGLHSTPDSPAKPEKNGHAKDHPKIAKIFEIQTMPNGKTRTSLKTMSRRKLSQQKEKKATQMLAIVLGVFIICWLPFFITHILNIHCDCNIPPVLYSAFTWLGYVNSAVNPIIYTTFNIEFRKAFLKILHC
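DiscoveRx PathHunter D2 beta-arrestin cells (2,100/well) attached overnight, then compound-stimulated 90 min at 37 C in HBSS/10 mM HEPES/0.1% Tween-20 buffer; beta-galactosidase complementation read by luminescence after 1 h at ambient temperature. Dopamine 57 uM final (EC100) as control.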
PINK1 expr mod: A Quantitative High throughput Screen to Identify Chemical Modulators of PINK1 Expression; PINK1 immunofluorescence, high-content cytometry, 24 h; Potency, µM (highest dose often 76.6 µM), inactives show at the highest dose activation (PINK1 increase), most hits filed as activators; 410,000 tested, 0.2% active; active = well fitted activation curve with a large enough effect; inconclusive = small, poorly fitted or top-dose-only effect; inactive = flat fitted curve, though single readings scatter; cell line not stated here;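 also: potency is read from the fitted curve at half-maximal effect; % of control where 0% means no effect; nearly all actives have a fitted effect of over 65% in size; a mitochondrial uncoupler was the plate control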
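Compound titrations (5 concentrations, 24 h) on a stable cell line; DMSO and CCCP controls. Endpoint: fixed-cell PINK1 immunofluorescence with mitochondrial, cell and nuclear markers, scanned by microplate cytometer.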
Six1-Eya2 inh: qHTS Assay for Inhibitors of the Six1/Eya2 Interaction | Homeobox protein SIX1 (Homo sapiens) + Protein phosphatase EYA2 (Homo sapiens), … | AlphaScreen GST-Six1/His-Eya2 binding, biochemical; hits give low values; control for the full effect not named in the record | activity change, % (test concentration not listed) | 360,000 tested, 0.56% active; in the data active = activity change below about -65%; inconclusive = about -30% to -65%; inactive = above about -30%; also: % is scaled to controls: 0 for no effect and ±100 for the full control effect; compound concentration not given in the record
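AlphaScreen with GST-Six1 and His-Eya2 (5X mix: 250 nM and 500 nM), glutathione donor and nickel acceptor beads; buffer 50 mM Tris pH 8.0, 300 mM NaCl, 1 mM TCEP; 1 h at 37 C in the dark.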
D2 PAM: Beta-Arrestin HTS for Positive Allosteric Modulators of the Human D2 Dopamine Receptor: Potentiators; D(2) dopamine receptor (Homo sapiens), P14416; DiscoveRx D2 beta-arrestin cells, luminescence, 90 min; 100% = 57 uM dopamine signal; potentiation, % (test concentration not listed); 360,000 tested, 0.23% active; AID 624464, 2012; active = potentiation of 50% or more; inconclusive = 30% to 50%; inactive = 30% or less;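 also: compound concentration not given in the record; tested on top of an EC20 dose of dopamine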
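PathHunter beta-arrestin assay in DiscoveRx D2 cells. Compounds were added with an EC20 of dopamine (50 nM final) for 90 min at 37 deg C. Luminescence was read 1 h after detection reagent, with 57 uM dopamine as the EC100 control.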
TRPML1 inh: qHTS for Inhibitors of the Human Mucolipin Transient Receptor Potential 1 (TRPML1); AID 624415, 2012; TRPML1-inducible cells, Ca2+ dye fluorescence, FDSS; hits give low values; inhibition of EC80 agonist-evoked calcium signal; Mucolipin-1 (Homo sapiens), Q9GZU1; 390,000 tested, 0.02% active; activity change, negative = inhibition, % (concentration not given with the values); in the data active means activity change below about -50%; inconclusive means about -30% to -50%; inactive means above about -30%;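 also: stimulus is agonist 54-4 at its EC80 concentration; % is scaled to controls: 0 for no effect and ±100 for the full control effect; compound concentration not given in the record; the text of the record puts the active cut at -80%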
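Calcium fluorescence in TRPML1-DL cells induced overnight with Tet: a 110 s read after compound pin addition, then a 110 s antagonist read after challenge with 54-4 at 4 uM final (EC80).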
Numbers without * were called inactive; ? = inconclusive; · = not tested or not shown; & = joins results of further samples; [ ] = another dose, or the depositor's remark. Compounds as they come. About 1% of those tested had a hit in this group.

SMILES	TRPML1 ag	D2 ag	PINK1 expr mod	Six1-Eya2 inh	D2 PAM	TRPML1 inh
Cc1oc(-c2ccc(Cl)cc2)nc1CS(=O)CC(=O)NCCCN1CC(C)CC(C)C1 (configuration not stated)	-0.7	1.2	3.0%	-0.2	-15.0	18.1
O=C(c1ccc(F)cc1)c1ccc(N2CCCC2)cc1	5.4	-5.6	5.8%	34.1	-14.5	4.6
COC1OC2COC(c3ccccc3)OC2C(O)C1NC(C)=O (configuration not stated)	·	3.5	0.5%	2.3	-34.2	·
CCOC(=O)N1CCN(S(=O)(=O)N2CCCC(C(=O)NCc3ccccc3OC)C2)CC1 (configuration not stated)	1.8&-1.1	1.4	-0.2%&0.0%	6.4	0.0	-1.6&-4.6
OC1c2cc(Cl)cc(Cl)c2N=C2CCCN21 (configuration not stated)	-0.5	-5.7	2.2%	6.4	-10.6	·
CC(C)CCn1c(Oc2ccccc2Cl)nc2c1c(=O)n(C)c(=O)n2C	0.5	-0.1	0.2%	-17.6	-12.6	26.8
CCc1cccc(NC(=O)Cn2c(=O)oc3cc(S(=O)(=O)N4CCOCC4)ccc32)c1	-0.8	5.3	-0.8%	-3.9	3.3	-4.3
C[C@@H]1CN([C@@H](C)CO)C(=O)CCCn2nncc2CO[C@@H]1CN(C)C(=O)Nc1ccc(C(F)(F)F)cc1	-0.1	-7.3	0.4%	2.9	0.3	-0.1
Cc1ccc(CS(=O)(=O)c2ncc(Cl)c(C(=O)Nc3nc4ccc(C)cc4s3)n2)cc1	1.0	·	-1.1%	·	·	-15.0
C=C1CCC2C(C)(C)[C@@H](O)CC[C@@]2(C)[C@@H]1COc1ccc2ccc(=O)oc2c1 (some centres not stated)	-0.2	-1.5	1.9%	1.4	-10.9	-1.2
O=C(CNC(=O)c1ccccc1F)OCCOc1cccc(Cl)c1	-1.1	-0.5	4.3%	6.0	-6.7	-8.9
COc1ccc(NC(=O)COC(=O)c2c3c(nc4ccccc24)CCCC3)cc1	4.8	-0.9	0.5%	-7.0	-15.4	0.8
NS(=O)(=O)c1ccc(CCNC(=O)Cn2c(=O)c3cccn3c3ccc(F)cc32)cc1	0.6	·	0.2%	·	·	-10.8
COc1ccc(NS(=O)(=O)c2ccc(NC(=O)CCNS(=O)(=O)c3ccc(C)cc3)cc2)cc1	4.6	-0.3	1.1%	4.0	1.7	11.3
O=C(NCc1nc2ccccc2[nH]1)c1ccc([N+](=O)[O-])cc1	0.2	-0.7	0.5%	1.9	-9.0	-12.1
OC(COC(c1ccccc1)c1ccccc1)CN1CCN(c2cccc(Cl)c2)CC1 (configuration not stated)	1.8	1.2	?	-12.7	-33.0	2.1
Cc1ccc(N/C=C/c2onc(C)c2[N+](=O)[O-])cc1	5.6	-7.9	6.2%	1.4	-12.9	7.2
CCOc1nc(NC(=O)NS(=O)(=O)Oc2ccccc2)nc(-c2ccccc2)n1	2.8	·	1.2%	·	·	13.2
CN(C)CCN(Cc1ccccc1)S(=O)(=O)c1ccc2c(c1)n(C)c(=O)c(=O)n2C	-0.2	-5.4	-0.3%	1.7	-4.9	-8.8
COc1cc(Cl)c(C)cc1NC(=O)CCc1c(C)nc2c3cccnc3nn2c1C	-0.1	·	-0.3%	·	·	13.6
COc1ccc(C(CC(=O)O)N2Cc3ccccc3C2=O)cc1 (configuration not stated)	0.4	-3.3	4.1%	2.6	-17.0	26.0
CC(C)c1ccc(NC(=O)Cc2ccc(NC3=NC4CS(=O)(=O)CC4S3)cc2)cc1 (configuration not stated)	-0.2	-1.0	2.0%	7.5	-12.0	10.5
CCN(CCn1cccn1)C(=O)c1cc(COc2ccc(F)cc2Cl)on1	-0.7	0.8	3.0%	2.4	-6.7	16.7
O=C(COC(=O)c1cc(=O)[nH]c2ccccc12)Nc1cccc(S(=O)(=O)N2CCOCC2)c1	-0.1	3.3	0.1%	-1.9	-7.6	3.9
COCCCNC(=O)c1sc2ncnc(N3CCc4ccccc4C3)c2c1C	-0.2	-3.4	6.0%[38.3 µM]	-4.7	-16.1	-8.5

(further entries)
SMILES	TRPML1 ag	D2 ag	PINK1 expr mod	Six1-Eya2 inh	D2 PAM	TRPML1 inh
CC(=O)N1CCN(c2ccc(NC(=O)c3ccco3)cc2Cl)CC1	-0.6	-1.7	-2.6%	17.8	-12.9	3.8
CCOc1ccc(Nc2oc(-c3cccc(Cl)c3)nc2C#N)cc1	0.7	2.4	24.6%[38.3 µM]	2.8	-7.6	-5.1
Cc1cccc(C(=O)NCC(=O)OCc2nnc(-c3ccccc3)o2)c1	0.6	-4.8	-4.3%	-0.8	7.5	9.1
Clc1cccc(Cl)c1COn1nnc2ccccc21	-0.2	-0.5	1.6%[38.3 µM]	9.0	-10.8	-3.0
Fc1ccc(C2=NN(c3ccccc3)C(c3ccco3)C2)cc1 (configuration not stated)	-0.1	-9.0	15.4%	108.1	-4.1	18.7
CCC(=O)Oc1ccc(-c2nc3ccccc3c(=O)o2)cc1	0.6	·	-0.5%	·	·	-1.2
O=C(Nc1ccc(OC(=O)c2ccccc2)c(-c2nc3ccccc3s2)c1)c1ccccc1	0.4	-3.3	15.9%	1.5	11.0	-9.7
COc1ccccc1Nc1ccc(C(=O)NC2CCCCC2)cn1	0.5	-0.9	·	0.1	-6.4	18.3
O=C(CN1c2ccccc2S(=O)(=O)c2ccccc21)NCc1ccccc1	0.2	-5.7	0.3%	0.3	-6.6	-12.6
CCOC(=O)c1c(CN(C)C)n(C)c2ccc(OC(C)=O)cc12	-0.6	-1.9	-0.8%	4.9	-21.8	13.8
C/C(=N\S(=O)(=O)c1ccc(C)cc1)N1CCCCC1	0.6	-3.8	1.8%	8.2	-4.3	9.5
CN(C)c1ccc(C(CNC(=O)c2cccs2)N(C)C)cc1 (configuration not stated)	0.4	-26.9	-0.1%	0.6	-11.0	10.8
COc1ccc(OC)c(NC(=O)CN(Cc2ccc(Cl)cc2)S(C)(=O)=O)c1	-1.2	-2.1	0.3%	-0.8	-14.7	-4.1
COCCCn1c(SCc2cccc(Cl)c2)nc2c(sc3ccccc32)c1=O	-1.0	·	-0.8%	·	·	2.5
Cc1cccc(OCc2nnc(SCC(=O)Nc3ccc(C)c(C)c3)o2)c1	2.8	0.3	27.9%[38.3 µM]	3.8	-11.8	8.6
CCCOC(=O)c1ccc(Oc2coc3c(CN(CC)CC)c(O)ccc3c2=O)cc1	-0.8	-2.4	1.4%	-1.0	-6.9	-3.2
CCOc1ccc(-n2ccc(=O)c(C(=O)Nc3ccc(S(=O)(=O)N4CCOCC4)cc3)n2)cc1	-0.3	-0.6	9.5%	1.9	-2.7	10.6
C/C(=N\Nc1nnc(C)c(=O)[nH]1)C(=O)O	0.1	0.9	?	-89.2*	23.3	-7.1
CCC(CC)COC(=O)C1=C(C)NC(=O)NC1c1ccc(N(C)C)cc1 (configuration not stated)	·	-0.8	-0.6%	-2.3	-15.1	·
O=C(O)c1cc(Cl)ccc1-c1ccc(/C=C/c2cc(C(F)(F)F)[nH]c(=O)n2)o1	21.4	-6.1	4.0%	0.0	2.4	8.0
COc1ccccc1CCc1nnc(CCC(=O)NC(C)Cc2cccs2)o1 (configuration not stated)	-0.1	-3.6	-0.5%	20.5	-5.5	-21.8
O=C(NCC(c1cccnc1)N1CCc2ccccc2C1)C(=O)Nc1ccccc1 (configuration not stated)	-0.1	·	-0.4%	·	·	0.2
O=C(CSC(=S)N1CCCC1)Nc1ncc(Cl)cc1Cl	0.5	-1.2	18.0%	12.7	6.3	9.4
COc1cccc(C2NC(=O)CCC2[N+](=O)[O-])c1OC (configuration not stated)	1.8	-1.6	2.2%	0.0	2.9	-3.4
CCn1ccnc1CN(C)Cc1nc(-c2ccc3c(c2)OCO3)no1	-0.1	2.3	0.3%	-4.4	-2.5	-7.5

Ordered by count of non-hydrogen atoms (rising): 5 of the compounds above.
SMILES	TRPML1 ag	D2 ag	PINK1 expr mod	Six1-Eya2 inh	D2 PAM	TRPML1 inh
C/C(=N\Nc1nnc(C)c(=O)[nH]1)C(=O)O	0.1	0.9	?	-89.2*	23.3	-7.1
COc1cccc(C2NC(=O)CCC2[N+](=O)[O-])c1OC (configuration not stated)	1.8	-1.6	2.2%	0.0	2.9	-3.4
COc1ccc(OC)c(NC(=O)CN(Cc2ccc(Cl)cc2)S(C)(=O)=O)c1	-1.2	-2.1	0.3%	-0.8	-14.7	-4.1
COCCCn1c(SCc2cccc(Cl)c2)nc2c(sc3ccccc32)c1=O	-1.0	·	-0.8%	·	·	2.5
CCCOC(=O)c1ccc(Oc2coc3c(CN(CC)CC)c(O)ccc3c2=O)cc1	-0.8	-2.4	1.4%	-1.0	-6.9	-3.2

Additional compounds follow.
SMILES	TRPML1 ag	D2 ag	PINK1 expr mod	Six1-Eya2 inh	D2 PAM	TRPML1 inh
C=CCN1CCN(C(c2cc(OC)ccc2OC)c2nnnn2CC2CCCO2)CC1 (configuration not stated)	-0.7	-1.2	-1.7%	-0.1	28.9	2.3
CCN1CCN(CCCNC(=O)c2cnn(-c3ccc(C)cc3)c2C2CCN(C(=O)OC(C)(C)C)CC2)CC1	0.3	·	-0.3%	·	·	11.6
COc1cc(OC)c(OC)cc1/C=C(\C#N)C(=O)NCc1cccs1	-0.5	-0.6	-0.1%	0.0	-2.3	4.0
OCCN=c1cc(-c2ccccc2)oc2ccc(Cl)cc12	-0.3	-2.3	-0.7%	0.0	-22.7	34.1
COC(=O)C[C@H]1c2cc(C(F)(F)F)ccc2S(=O)(=O)N1C(C)(C)C	0.3&0.6	-1.0	-0.3%	8.4	-4.3	16.8
C=CCn1c(C2CC2)n[nH]c1=S	-0.2	0.1	-0.4%	4.9	-10.8	-5.5
COc1ccc(CCNC(=O)CSc2cn(CCNC(=O)c3cccc(C(F)(F)F)c3)c3ccccc23)cc1OC	0.8	·	3.2%	·	·	29.1
Cc1ccn2c(=O)c(C(=O)O)cnc2c1	1.1	-3.9	-0.7%	6.9	-3.9	3.0
CCN(CC(=O)NCc1ccc(Cl)cc1)C(=O)NCc1ccc(Cl)cc1	-1.0	-3.5	5.7%	4.7	-3.9	11.9
Cc1cccc(NC(=O)c2cc(-c3ccc(C)s3)nc3ccccc23)n1	2.1	2.8	1.3%	25.4	4.9	62.4
Cc1cccc(NS(=O)(=O)c2ccc3[nH]c(=O)ccc3c2)c1C	-0.3	·	2.3%	·	·	?
C=CCn1c(Cc2csc(N)n2)nnc1SCC(=O)Nc1ccc(C(=O)OCC)cc1	0.2	-0.4	·	?	-4.9	-0.5
Cc1ccc(CSc2nc3[nH]ncc3c(=O)[nH]2)cc1	1.1	-1.0	2.7%	-23.5	0.4	-1.4
